Screening results as filed in PubChem.
PKD1 kinase inh: PKD1 (human) kinase inhibition; Q15139; PKD1 kinase fluorescence polarization assay; inhibition, %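 (about 10 µM by stock and volumes)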; 200,000 compounds, 0.056% hits;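 active means inhibition of 50% or more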;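 further: controls were vehicle for no effect and a reference inhibitor for full effect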
RGS16-Gao: RGS16-Galphao interaction regulator (human); bead-based flow cytometry RGS16-Galphao binding, fluorescence; actives lie on both sides; binding response (% of control), % at 10 µM; 220,000 compounds, 0.38% hits; AID 1441;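 active means below 25% or above 175%, edge rows of some plates excepted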;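 further: Galphao activated by GDP with aluminum fluoride before binding; 100% = wells without compound and 0% = beads without RGS; some results beyond the cut were filed as inactive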
Target sequence (O15492 whole entry, looked up): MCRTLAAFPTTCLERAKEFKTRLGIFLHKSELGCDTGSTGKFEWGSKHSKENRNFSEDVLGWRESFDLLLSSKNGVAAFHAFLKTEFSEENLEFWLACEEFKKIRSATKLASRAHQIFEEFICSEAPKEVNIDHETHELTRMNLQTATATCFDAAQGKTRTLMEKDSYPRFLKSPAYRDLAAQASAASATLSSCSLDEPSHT
Target sequence (P09471 whole entry, looked up): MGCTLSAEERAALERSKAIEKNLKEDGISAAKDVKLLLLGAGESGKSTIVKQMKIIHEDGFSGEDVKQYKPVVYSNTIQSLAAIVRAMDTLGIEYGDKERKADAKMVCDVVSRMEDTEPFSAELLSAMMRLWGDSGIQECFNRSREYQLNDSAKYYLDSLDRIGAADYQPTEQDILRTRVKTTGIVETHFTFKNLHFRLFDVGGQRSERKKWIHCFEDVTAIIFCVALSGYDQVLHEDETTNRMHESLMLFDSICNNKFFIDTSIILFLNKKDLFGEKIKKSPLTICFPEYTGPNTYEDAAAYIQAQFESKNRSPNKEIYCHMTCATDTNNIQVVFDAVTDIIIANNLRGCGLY
GALR2 ag: GALR2 (human) receptor agonism | O43603 | activation, %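 (tested at 5 µM)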 | GALR2-expressing cells, agonist activation read-out | 140,000 compounds, 0.48% hits | AID 803;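 active means above mean plus 3 SD of all compounds, about 5% in these data, not always enough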;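 further: 0% = vehicle buffer wells and 100% = reference agonist at full effect; tested in CHO reporter cells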
Target sequence (O43603 whole entry, looked up): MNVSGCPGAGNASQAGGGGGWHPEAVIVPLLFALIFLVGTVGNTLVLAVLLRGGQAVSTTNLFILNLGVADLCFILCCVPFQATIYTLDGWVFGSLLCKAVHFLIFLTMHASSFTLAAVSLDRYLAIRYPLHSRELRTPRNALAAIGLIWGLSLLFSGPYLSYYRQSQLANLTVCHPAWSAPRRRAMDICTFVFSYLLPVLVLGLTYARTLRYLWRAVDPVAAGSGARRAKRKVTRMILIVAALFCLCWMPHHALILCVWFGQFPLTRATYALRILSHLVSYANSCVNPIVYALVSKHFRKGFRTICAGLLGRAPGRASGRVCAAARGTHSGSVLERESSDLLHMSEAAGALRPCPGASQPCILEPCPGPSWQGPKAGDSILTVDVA
HSV replic up: increases HSV replication in cells | HSV replication augmentation in cells, fold increase | maximum fold increase | 220,000 compounds, 0.005% hits;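 active means peak rise of 1.5-fold or more in the series; inconclusive means self-fluorescent or not available for retest; tested in PC3 cells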;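 further: first round at 10 µM; read as green reporter fluorescence; hits show the peak of a series up to 25 µM; 1 = signal of infected wells without compound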
Insulin prom inh: TRM-6 insulin promoter activity inhibition | TRM-6 cells (human fetal islet line), insulin promoter-eGFP reporter, imaging; reporter expression induced with tamoxifen | inhibition, % at 2 µM | 130,000 compounds, 0.9% hits;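 active means inhibition above the mean plus 3 SD, with well images judged a real hit on visual review, cut at about 60% in these data, passing the limit was not always enough; inconclusive means inhibition over the cutoff but images rejected on review; inactive means inhibition not above the cutoff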
Insulin prom inh cell count: second read-out of Insulin prom inh, no call of its own (marks repeat the call); normalized cell count, %; measured here: cell count, toxicity; reference of the scale not given here;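 cells exposed to compound for 48 h; stained nuclei by imaging scaled within each plate; lower means fewer cells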
HSV replic up primary fold: also measured in HSV replic up; calls as there; fold increase; compound at 10 µM; measured here: primary screen fold increase 10 uM; tested in PC3 cells;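 GFP signal in the first replicate; 1 = infected wells without compound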
Active calls of the source: *; i = inactive; ? = inconclusive; · = not tested or not shown.

molecule	PKD1 kinase inh	RGS16-Gao	GALR2 ag	HSV replic up	HSV replic up primary fold	Insulin prom inh	Insulin prom inh cell count
CN(C)c1nc(N)c([N+](=O)[O-])c(NCC2CCCO2)n1 (centres undefined)	·	108	·	i	0.8	·	·
CCn1c(O)c(C=Nc2ccccc2)n(-c2ccccc2)c1=S	-2	101	-0.9	i	0.99	23	81
CNS(=O)(=O)c1cc(NC(C)=O)c(C)cc1C	-7	29	0.0	i	1.1	-18	82
CCCOc1ccc(C(=O)CCC(=O)OCC(=O)N2CC(=O)Nc3ccccc32)cc1	2	108	-3.5	i	0.93	0	126
COc1ccc(/C=N/NC(=O)CN2CCN(Cc3ccccc3)CC2)cc1Br	·	100	·	i	0.97	·	·
Cc1cc(Cl)nc(-n2nc(C)cc2C)n1	·	100	·	i	1.2	·	·
Cc1ccc(CSc2nnc(CC(=O)Nc3ccc(C)cc3)n2C)cc1	-13	98	-0.1	i	1.1	-19	62
CCOC(=O)c1[nH]c(=O)c2ccccc2c1O	-6	101	-1.0	i	0.98	-29	157
COC(=O)CCCn1c(C)cc(C(=O)CCl)c1C	0	108	·	i	1.1	-14	78
COc1ccc(C(=O)N/N=C2\CCS(=O)(=O)c3ccc(F)cc32)cc1OC	·	102	·	i	0.73	·	·
Fc1ccc(C2c3[nH]c4ccccc4c3CCN2Cc2ccoc2)cc1 (centres undefined)	-7	97	·	i	1.1	·	·
Cc1ccc(NC(=O)c2cc(S(=O)(=O)N3CCOCC3)ccc2F)c(C)c1	12	98	-0.4	i	0.98	·	·
Cc1ccc(C(=O)N/C(=C\c2cccnc2)c2nc3ccccc3[nH]2)cc1	-6	103	-0.8	i	1.2	·	·
O=C(NCCN1CCOCC1)c1ccc(NC(=O)C2COc3ccccc3O2)cc1 (centres undefined)	1	103	·	i	0.93	-38	75
CCOC(=O)c1cnn2c(N)c(C#N)nnc12	1	105	-5.3	i	0.82	-14	109

More entries.
molecule	PKD1 kinase inh	RGS16-Gao	GALR2 ag	HSV replic up	HSV replic up primary fold	Insulin prom inh	Insulin prom inh cell count
CC(C)[C@H](NC(N)=O)C(=O)NNC(=O)COc1cccc(C(F)(F)F)c1	·	98	·	i	0.96	·	·
C=CCC(NCc1ccccc1)c1ccc(Cl)cc1 (centres undefined)	-1	106	0.8	i	1	-18	130
O=C(CSc1nncs1)NC(=O)Nc1ccc2c(c1)OCCO2	·	96	·	i	0.95	·	·
Cc1cc(N2CCN(c3ccccc3F)CC2)nc2cc(O)ccc12	-3	103	1.0	i	0.93	-16	93
COc1ccc(OCC(=O)N2CCc3c([nH]c4ccccc34)C2c2ccccn2)cc1 (centres undefined)	2	97	·	i	0.95	·	·
O=S(=O)(c1cccc(S(=O)(=O)N2CCCC2)c1)c1cccc(S(=O)(=O)N2CCCC2)c1	-2	102	-2.6	i	1	·	·
O=C(CN1C(=O)COc2ccccc21)N1CCc2ccccc2C1	-9	94	-2.2	i	0.95	67	142
O=C(O)c1nc(-c2ccccc2)n(-c2ccc(Cl)cc2)n1	6	108	-1.6	i	0.93	-68	86
CCO[C@H]1OC(C(=O)NC2CC2)=C[C@@H](c2ccc3c(c2)OCO3)[C@@H]1CCCO	3	116	·	i	0.84	·	·
CC(C)N1CCN(Cc2cccn2-c2ccccn2)CC1CCO (centres undefined)	-7	96	·	i	0.88	·	·
COCCNC(=O)NC(=O)CSc1nc(C)c(C)c(C)n1	-1	96	·	i	0.99	-17	115
CC1(C(=O)OCc2cc(=O)n3cc(Br)ccc3n2)CC1(Cl)Cl (centres undefined)	-2	116	·	i	0.93	64	64
CCCCN(C(=O)CSc1nnnn1C)c1c(N)n(Cc2ccccc2)c(=O)[nH]c1=O	·	99	·	i	0.95	·	·
COCCn1c(Cc2ccccc2)nnc1SCC(=O)NC(C)C	4	101	-2.5	·	·	·	·
O=C(NCc1ccccc1)Nc1cccc2ccccc12	-5	102	·	i	1	·	·

Next compounds:
molecule	PKD1 kinase inh	RGS16-Gao	GALR2 ag	HSV replic up	HSV replic up primary fold	Insulin prom inh	Insulin prom inh cell count
Clc1ccsc1-c1ccnc(-n2cccc2)n1	6	99	·	i	1	35	126
CCn1c(CCCOc2ccc(Cl)cc2Cl)nnc1SCC(=O)Nc1cc(F)ccc1C	-12	105	-0.8	i	0.87	·	·
CCC(=O)Nc1cccc(NC(=S)NC(=O)c2cccc(C)c2)c1	3	104	-1.7	i	0.88	27	107
CCOC(=O)c1ccc(NC(=O)Nc2ccc(F)cc2)cc1	5	102	-0.4	?	·	47	60
Cc1cc(C)c2c(=O)[nH]c(SCC(=O)Nc3ccccc3)nc2n1	-7	116	-0.9	i	1	·	·
Cc1ccc(C(=O)N/C(=C\c2ccc([N+](=O)[O-])cc2)C(=O)NCCc2ccccc2)cc1	-4	106	0.8	i	1.1	7	154
CC(C)CCC1=NN(C(=O)c2ccco2)C(O)(C(F)(F)F)C1 (centres undefined)	-8	111	·	i	1	·	·
Cc1cccc(C(=O)N2CCN=C2SCc2ccc([N+](=O)[O-])cc2)c1	-6	107	·	i	0.99	-45	49
COc1ccc(OCC(=O)N/N=c2\oc3c(OC)cccc3cc2C(N)=O)cc1	-15	110	1.4	i	0.89	-17	141
O=C(CCCn1c(=O)[nH]c2cc(Cl)ccc2c1=O)NCC1CCCO1 (centres undefined)	9	102	-2.0	·	·	-63	40
O=C(O)CC(NC(=O)Cc1ccc([N+](=O)[O-])cc1)c1ccc2c(c1)OCO2 (centres undefined)	-2	103	·	i	1.2	·	·
Cc1ccc(NC(=O)c2cc(N3C(=O)CCC3=O)ccc2N2CCOCC2)cc1	0	100	·	i	0.96	·	·
O=C(NCC12CC3CC(CC(C3)C1)C2)c1nn2cccnc2c1Cl	1	99	-0.8	i	0.9	-18	61
Cc1onc(-c2ccccc2)c1C(=O)NCCc1ccc(Cl)cc1	-1	106	-1.6	i	0.95	-49	206
Oc1cccc(NC(=S)Nc2ccc(SC(F)F)cc2)c1	-3	96	-0.9	i	0.98	-22	117

Next records follow:
molecule	PKD1 kinase inh	RGS16-Gao	GALR2 ag	HSV replic up	HSV replic up primary fold	Insulin prom inh	Insulin prom inh cell count
FC(F)(F)c1cc(Sc2ccccc2)nc(-c2ccccn2)n1	4	101	-1.8	i	0.92	0	62
CCCn1c(-c2ccc(OC)cc2)nc2c(=O)n(C)c(=O)[nH]c21	2	102	-1.1	i	0.88	36	157
CCOC(=O)C(CCCCP(=O)(c1ccccc1)c1ccccc1)(NC(C)=O)C(=O)OCC	·	94	·	i	0.96	·	·
Cc1cc(C)c2cc3c(N)c(C(=O)Nc4c(C)[nH]c(=O)[nH]c4=O)sc3nc2c1	3	111	-2.3	i	1.1	34	43
Cc1nn(-c2ccccc2)c2nc(N)c(C#N)c(-c3ccc(C(C)(C)C)cc3)c12	·	101	·	i	0.91	·	·
Cn1c(=O)c2c(nc(-n3ccnc3)n2C)n(C)c1=O	-11	107	-1.0	i	0.92	20	101
NS(=O)(=O)c1ccc(-c2ccc(C=O)o2)cc1	-5	101	·	i	0.89	·	·
Cc1ccc(-c2cc(-c3cccc(F)c3)n[nH]2)c(O)c1	-2	107	-2.8	i	0.77	55	188
CC(C)c1ccc2[nH]c(O)c(N=NC(=O)c3cccc(S(=O)(=O)Nc4ccccc4Cl)c3)c2c1	-5	102	-0.1	i	0.7	57	100
Cc1ccc(-n2nc(C)c(C(=O)O)n2)c(C)c1	-5	106	-3.2	i	1.1	·	·
CCS(=O)(=O)Nc1ccc(C(=O)OC)cc1	-13	100	-1.3	i	1.1	44	128
CCCCNC(=O)/C(C#N)=C/c1ccc2c(c1)OCCO2	-9	113	-1.2	·	·	·	·
O=C(Nc1ccc(S(=O)(=O)Nc2ncccn2)cc1)C1=NN(c2ccccc2)C(=O)CC1	·	100	·	i	0.96	·	·
O=C(Nc1ccc(OCC(F)(F)C(F)F)cc1)c1ccncc1	3	105	·	i	1.1	6	132
CCOc1ccc(Cl)cc1CNCCNCC(C)O (centres undefined)	5	90	-1.8	i	0.74	36	86

For reference, some entries already given:
molecule	PKD1 kinase inh	RGS16-Gao	GALR2 ag	HSV replic up	HSV replic up primary fold	Insulin prom inh	Insulin prom inh cell count
CCCCNC(=O)/C(C#N)=C/c1ccc2c(c1)OCCO2	-9	113	-1.2	·	·	·	·
O=C(Nc1ccc(S(=O)(=O)Nc2ncccn2)cc1)C1=NN(c2ccccc2)C(=O)CC1	·	100	·	i	0.96	·	·
O=C(Nc1ccc(OCC(F)(F)C(F)F)cc1)c1ccncc1	3	105	·	i	1.1	6	132

Next structures.
molecule	PKD1 kinase inh	RGS16-Gao	GALR2 ag	HSV replic up	HSV replic up primary fold	Insulin prom inh	Insulin prom inh cell count
CCN(CC)C(=O)CSc1nc2ccccc2c(=O)n1CCC(=O)NCc1ccc(F)cc1	-6	100	-0.3	i	1.1	-114	129
CC(=O)c1cc(C(=O)Nc2ccccc2C(=O)O)oc1C	1	104	-1.2	i	0.98	3	51
CCn1cc(C(=O)OCC(=O)c2cc(C)n(-c3ccccc3F)c2C)c(=O)c2ccc(C)nc21	-4	100	-0.7	i	0.88	32	114
O=C(Nc1ccc2c(c1)OCCO2)c1ccc(S(=O)(=O)N2CCCCC2)cc1	-5	98	-2.2	i	0.93	-33	56
Cc1cccc(NC(=O)Nc2ccccn2)c1C	·	105	·	i	1.1	·	·
Cc1noc(C)c1COC(=O)CCc1nc2ccccc2c(=O)[nH]1	-14	145	-0.3	i	1.1	·	·
COc1ccc(NC(=O)c2cccc(Cn3cc(Br)c([N+](=O)[O-])n3)c2)c(C)c1	-4	97	·	i	0.81	·	·
Cc1c(NC(=O)CSc2nc3ccccc3[nH]2)c(=O)n(-c2ccccc2)n1C	-3	100	-0.2	i	0.87	9	147
Cc1nc(NC(=O)c2oc3ccccc3c2C)sc1C(=O)N(C)C	3	104	-1.9	i	0.92	-9	87
O=C1C=C(Nc2ccccc2)CC(c2ccccc2)C1 (centres undefined)	-4	108	·	i	0.98	·	·
CC(C)(C)OC(=O)NCCc1nnc(SCC(N)=O)o1	1	93	-2.5	i	0.91	3	81
CCNC(=S)N/N=C/c1ccc(OCC(=O)Nc2ccc(OC)cc2)c(OC)c1	2	95	0.0	i	1	8	106
CSc1ncccc1C(=O)OCc1ccc(C#N)cc1	8	92	2.2	i	1	17	80
O=C(O)CCN1C(=O)c2ccc(NC(=O)C(c3ccccc3)c3ccccc3)cc2C1=O	·	101	·	i	0.96	·	·
CN(C)/C=N/c1sc2c(c1C(N)=O)CCCC2	-1	101	·	i	0.86	·	·

Next structures
molecule	PKD1 kinase inh	RGS16-Gao	GALR2 ag	HSV replic up	HSV replic up primary fold	Insulin prom inh	Insulin prom inh cell count
O=C(COC(=O)[C@H](Cc1ccccc1)N1C(=O)c2ccccc2C1=O)Nc1ccc2c(c1)OCO2	6	97	-0.7	i	1.1	-9	148
COc1ccc(Cl)cc1NC(=O)CSc1nnc(COc2ccccc2)n1C	5	101	-2.9	i	0.8	·	·
COc1ccccc1NC(=O)C1=C(C)Nc2nnnn2C1c1cccc(C)c1 (centres undefined)	1	109	-2.2	i	0.92	·	·
CCN(CC)C(=O)CSc1nc2ccccc2o1	7	106	-0.6	i	0.99	15	94
O=C(NCCN1CCOCC1)c1nn2c(c1Cl)NC(c1ccccc1)CC2C(F)(F)F (centres undefined)	-1	102	0.5	i	0.89	·	·
C=CCn1c(CCC(O)COCCCCC)n[nH]c1=S (centres undefined)	·	100	·	i	0.94	·	·
COCC(O)CSc1nc(C)[nH]c1[N+](=O)[O-] (centres undefined)	0	101	0.1	i	1	25	96
CC(NC(=O)C1CCCN1S(=O)(=O)c1cccc2cccnc12)c1ccccc1 (centres undefined)	1	94	-1.8	i	0.93	·	·
Cc1ccc(N2C(=O)NC(NC(=O)c3ccc(Cl)cc3)(C(F)(F)F)C2=O)cc1 (centres undefined)	-8	107	-0.7	i	0.97	-53	146
O=C(c1ccc2c(c1)OCO2)N1CCC2(CC1)Oc1ccc(F)cc1C(=O)C21CC(c2ccc(Cl)cc2)=NO1 (centres undefined)	·	99	·	i	0.77	·	·
CC(C)NC(=O)C1CC(=O)N(c2ccc(F)c(Cl)c2)C1 (centres undefined)	-15	104	-0.6	i	1	·	·
CCOC(=O)c1cnc(Nc2nc3ccccc3o2)nc1CSc1ncccn1	-11	·	-2.2	i	0.71	29	81
O=C1CCCC/C1=C\Nc1ccc(O)cc1	-3	92	-3.0	i	0.77	-41	114
CC(=O)c1cnc2sccn2c1=O	0	103	·	i	0.93	36	99
Cc1ccc(-c2nnc(N3CCN(C(=O)COc4cccc(C)c4)CC3)c3ccccc23)cc1	·	99	·	i	0.93	·	·
